Assay outcomes: PubChem BioAssay, National Center for Advancing Translational Sciences (NCATS)
NS1 function inh: qHTS Assay for Inhibitors of Influenza NS1 Protein Function | S. cerevisiae slowed by influenza A NS1, growth recovery by OD600 | Potency, µM (titrated, usually from 46.1 µM), for the others: top-dose activity, positive = more growth | 270,000 tested, 0.4% active | AID 2326, 2010; further: actives are rising curves; nearly all actives have a fitted effect of over 50% in size
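Recovery from NS1-induced slow growth read by OD600 in budding yeast switched to galactose assay medium (pH 6.0, -URA) at 1:100 dilution. Compound 23 nl per well; the matching strain lacking NS1 serves as control.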
StopGo reporter: High Throughput Screening for Foot and Mouth Disease Virus Antivirals; human cells with a luciferase reporter of 2A StopGo recoding; control for the full effect not named in the record; Potency, µM (doses to about 57.9 µM), for inactives: at the highest dose signal change, negative = less light; 410,000 tested, 1.2% active; AID 1159524, 2015; active = well fitted falling curve with a large enough effect; inconclusive = small, poorly fitted or top-dose-only effect; inactive = no such curve, though single readings can be large or run the other way; tested in HEK293T cells; further: on the % scale 0 is the no-effect control and ±100 the full control effect; nearly all actives have a fitted effect of over 45% in size; luciferase light after 4 h
MARV entry inh: qHTS for inhibitors of binding or entry into cells for Marburg Virus; Potency, µM (doses to about 37.8 µM), for the others: at the top dose activity change, negative = inhibition, most hits filed as inhibitors; Marburg virus pseudotyped entry inhibition, cell reporter; control for the full effect not named in the record; about a third of the inactives were read at about 46 µM; 300,000 tested, 1.8% active; active = well fitted inhibition curve with a large enough effect; inconclusive = small, poorly fitted or top-dose-only effect, or effect the other way; inactive = flat fitted curve, though single readings scatter; tested in HEK293 cells; about a fifth of its hits are not listed in these tables; further: on the % scale 0 is the no-effect control and ±100 the full control effect; luciferase read-out
Lassa entry inh: qHTS for Inhibitors of binding or entry into cells for Lassa Virus. 300,000 tested, 1.2% active. Lassa virus pseudotype entry inhibition, cell reporter; control for the full effect not named in the record. Potency, µM (top dose mostly 37.9 µM), for the others: at the highest dose activity change, negative = inhibition, hits mostly inhibitors; active means well fitted inhibition curve with a large enough effect; inconclusive means small, poorly fitted or top-dose-only effect, or effect the other way; inactive means flat fitted curve, though single readings scatter; tested in HEK293 cells; further: on the % scale 0 is the no-effect control and ±100 the full control effect; nearly all actives have a fitted effect of over 50% in size; luciferase read-out
Cruzain noTriton: qHTS Assay for Promiscuous and Specific Inhibitors of Cruzain (without detergent); Cruzipain (Trypanosoma cruzi), P25779; Potency, µM, for inactives: max response, negative = inhibition, hits mostly inhibitors; purified cruzain, Z-FR-AMC fluorescence, no detergent; 200,000 tested, 2.3% active; AID 1476, 2009; active means well fitted curve in the direction sought with a large enough effect; inconclusive means small, poorly fitted or top-dose-only effect, or another doubt; inactive means no such curve, though single readings can be large; an effect the other way counts as inactive or inconclusive;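 further: plate controls were enzyme without inhibitor for no effect and buffer without enzyme for full effect; nearly all actives have a fitted effect of over 40% in size; top concentration of the series not given in the record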
Target sequence (P25779 123-467 limits assumed): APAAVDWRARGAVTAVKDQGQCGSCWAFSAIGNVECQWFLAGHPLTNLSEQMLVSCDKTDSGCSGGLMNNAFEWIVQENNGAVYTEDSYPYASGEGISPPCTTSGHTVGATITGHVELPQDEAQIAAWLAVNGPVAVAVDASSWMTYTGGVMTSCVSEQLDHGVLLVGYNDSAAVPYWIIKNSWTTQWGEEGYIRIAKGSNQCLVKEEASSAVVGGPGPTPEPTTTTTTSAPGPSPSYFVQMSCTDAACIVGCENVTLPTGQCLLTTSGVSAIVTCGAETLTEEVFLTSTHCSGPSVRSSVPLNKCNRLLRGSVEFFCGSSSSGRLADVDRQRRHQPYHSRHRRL
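Purified cruzain at 1.5 nM, pre-incubated 15 min with compound at room temperature in 100 mM sodium acetate pH 5.5, 5 mM DTT, 0.00005% Triton X-100. Reaction started with 2 uM Z-FR-AMC; AMC fluorescence increase over 60 s gives rate.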
RE007 growth inh: qHTS Assay for Inhibitors of the HIV-1 protein Vpr; Potency, µM (highest dose often 92.2 µM), without a hit: at the top dose activity change, negative = less growth; AID 651644, 2012; 360,000 tested, 0.21% active; S. pombe RE007 Vpr strain, BacTiter-Glo ATP luminescence, 24 h; control for the full effect not named in the record; active = well fitted falling curve with a large enough effect; inconclusive = small, poorly fitted or top-dose-only effect; inactive = no such curve, though single readings can be large or run the other way;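 further: on the % scale 0 is the no-effect control and ±100 the full control effect; nearly all actives have a fitted effect of over 50% in size; the assay follows cell death caused by Vpr and the record does not say whether a fall means rescue or toxicity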
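Fission yeast strain RE007, carrying one chromosomally integrated HIV-1 vpr copy, was seeded at OD 0.01 in PMG+AL medium with 23 nL pinned compound. After 24 h at 30 °C and 99% humidity, viability was read by BacTiter-Glo luminescence.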
Cruzain Triton: qHTS Assay for Promiscuous and Specific Inhibitors of Cruzain (with detergent) | Potency, µM, for the others: max response, negative = inhibition, actives largely listed as inhibitors | Cruzipain (Trypanosoma cruzi), P25779 | 200,000 tested, 0.43% active | purified cruzain, Z-FR-AMC fluorescence, 0.01% Triton; active means well fitted curve in the direction sought with a large enough effect; inconclusive means small, poorly fitted or top-dose-only effect, or another doubt; inactive means no such curve, though single readings can be large; an effect the other way counts as inactive or inconclusive;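 further: plate controls were neutral wells for no effect and buffer without enzyme for full effect; nearly all actives have a fitted effect of over 40% in size; top concentration of the series not given in the record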
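Enzyme 1.5 nM, Z-FR-AMC 2 uM, NaOAc 100 mM pH 5.5, DTT 5 mM, Triton X-100 0.01%; 15 min RT compound preincubation; kinetic ex360/em450, 60 s delta.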
SARS PLpro yeast: qHTS of Yeast-based Assay for SARS-CoV PLP. AID 485353, 2010. Potency, µM (doses to about 32.9 µM), without a hit: at the highest dose activity, positive = growth rescue. 330,000 tested, 0.19% active. S. cerevisiae expressing SARS-CoV PLpro, growth rescue; control for the full effect not named in the record; further: 0% is about no effect; nearly all actives have a fitted effect of over 55% in size; growth read by luminescence after 48 h
* hit, by the source's call; ? = inconclusive; / = no result given; & = joins results of further samples; [ ] = another dose, or the depositor's remark. Unless noted, the call rests on the fitted dose curve; in most records, active means well fitted rising curve with a large enough effect; inconclusive means small, poorly fitted or top-dose-only effect; inactive means no such curve, though single readings can be large or run the other way. Potency means the concentration at half of the fitted maximal effect.

A first look (three entries):
SMILES	NS1 function inh	StopGo reporter	MARV entry inh	Lassa entry inh	Cruzain noTriton	RE007 growth inh	Cruzain Triton	SARS PLpro yeast
CCCCC[n+]1ccn(C2=C([O-])c3ccccc3C(=O)/C2=N\S(=O)(=O)c2ccc(Cl)cc2)c1	-6%	?	/	/	/	-12%	/	0%
CNC(=O)c1c(Cl)cnn1-c1ccc(F)cc1	4%	39%[activator]	?	29%[46.1 µM]	/	16%	/	2%
COc1cc(/C=C2/C(=O)NN(c3cccc(C)c3)C2=O)ccc1OC(=O)c1ccco1	-2%	-28%	4%	2%	-8%	7%	-1.5%	16%

The listing, from the start:
SMILES	NS1 function inh	StopGo reporter	MARV entry inh	Lassa entry inh	Cruzain noTriton	RE007 growth inh	Cruzain Triton	SARS PLpro yeast
CCCCC[n+]1ccn(C2=C([O-])c3ccccc3C(=O)/C2=N\S(=O)(=O)c2ccc(Cl)cc2)c1	-6%	?	/	/	/	-12%	/	0%
CNC(=O)c1c(Cl)cnn1-c1ccc(F)cc1	4%	39%[activator]	?	29%[46.1 µM]	/	16%	/	2%
COc1cc(/C=C2/C(=O)NN(c3cccc(C)c3)C2=O)ccc1OC(=O)c1ccco1	-2%	-28%	4%	2%	-8%	7%	-1.5%	16%
Cc1ccc(Cl)cc1NC(=O)COC(=O)c1ccc(N2CCCC2)c([N+](=O)[O-])c1	3%	/	/	/	-3%	/	-5.0%	?
Cc1cc(C)cc(Nc2nc3c(S(=O)(=O)c4cccc(Cl)c4)nnn3c3ccsc23)c1	/	-12%	/	17%[46.1 µM]	9%	/	0.8%	/
Nc1ccn(Cc2ccc(F)cc2)n1	?	8%	15%[46.1 µM]	6%[46.1 µM]	/	6%	/	-1%
CCOC(=O)CC1C(=O)NCCN1C(=O)c1cc2c(=O)n3ccccc3nc2s1 (stereo not given)	-7%	/	/	/	0%	/	22µM*	6%
COc1ccc(CCNC(=O)COC(=O)C23CC4CC(CC(C4)C2)C3)cc1	-18%	-25%	?	-26%	-7%	2%	-2.7%	-1%
O=C(C1=C(O)C(=O)N(c2ncccn2)C1c1cccc(Cl)c1)c1ccco1 (stereo not given)	18%	26%	-1%	20%[14.3 µM]	-8%	-17%	-4.8%	/
CCOc1ccccc1NC(=O)n1ncc2cc(Cl)ccc21	/	22%	-5%[46.1 µM]	0%[46.1 µM]	0%	/	-2.0%	/
Cc1cc(NC(=O)CN(C)S(=O)(=O)c2ccc3c(c2)CCC(=O)N3)ccc1Br	/	14µM*	?	-28%[46.1 µM]	8%	/	-2.4%	/
CC1CCN(Cc2cc(=O)oc3cc(O)c(Cl)cc23)CC1	7%	-10%	/	/	/	-7%	/	-2%
CCOC(=O)N=Nc1c(O)n(C)c2ccccc12	12%	-6%	?	11%	-4%	-8%	-7.2%	6%
Cn1c(=O)n(C)c2cc(S(=O)(=O)NCCOCCO)ccc21	3%	/	?	11%	-4%	-6%	9.0%	5%
O=C(CCn1c(SCC(=O)NCc2ccco2)nc2ccccc2c1=O)NCCc1ccccc1	-3%	-2%	-1%&2%	-3%	-12%	14%	-3.1%	11%
O=C(NCc1nnc2n1CCCCC2)c1ccc(Cl)cc1Cl	-11%	1%	-6%	3%	-4%	18%	2.3%	-6%
O=C(CCC(=O)N1CCN(S(=O)(=O)c2ccccc2)CC1)NC1CCCc2ccccc21 (stereo not given)	-9%	-21%	-11%&-11%	-1%	11%	-1%	-1.9%	11%
Cc1c2cn[nH]c(=O)c2c(C)n1Cc1ccc(F)cc1	5%	-5%	/	/	-8%	7%	0.8%	-7%
COc1ccc(S(=O)(=O)Cc2ccc(C(=O)N3CCN(Cc4ccccc4)CC3)o2)cc1	-9%	-22%	/	/	-9%	6%	-4.0%	14%
CCOc1ccccc1N1CCN(C(=O)c2cc(-c3cccnc3)nc3c(Cl)cccc23)CC1	14%	?	?	?	/	3%	/	13%
CCOc1ccc2[nH]c(C(=O)N/N=C/c3ccc(OC)cc3)cc2c1	4%	-12%	?	?	/	6%	/	0%
COc1ccc(Cn2nnc3c(=O)[nH]c(C4CCN(C(=O)c5ccc(C)cc5)CC4)nc32)cc1OC	/	-29%	3%[46.1 µM]	-4%[46.1 µM]	?	/	-2.8%	/
COc1ccc(CNC(=O)c2cnc(N(C)C)nc2)cc1	/	-7%	/	13%[46.1 µM]	-4%	/	-3.7%	/
O=C(Nc1nnc(-c2ccccn2)o1)c1cccc(Cl)c1	/	16%	-22%[46.1 µM]	?	/	-16%	/	6%
Cc1cc(C)n(-c2ccc(C(=O)OCC(=O)Nc3ccccc3[N+](=O)[O-])cc2)n1	-6%	0%	?	-3%	0%	18%	-4.0%	16%
(next part)
SMILES	NS1 function inh	StopGo reporter	MARV entry inh	Lassa entry inh	Cruzain noTriton	RE007 growth inh	Cruzain Triton	SARS PLpro yeast
COCCNC(=O)C(c1ccc(F)cc1)N(Cc1ccco1)C(=O)CCC(=O)Nc1ccccn1 (stereo not given)	-3%	1%	-8%[46.1 µM]	-16%[46.1 µM]	/	7%	/	2%
O=C(O)Cn1c(-c2cccs2)cc2cc(Cl)ccc21	/	-4%	3%[46.1 µM]	?	-8%	/	-9.7%	/
Cc1ccc(CNC(=O)c2cccc(-n3cnc4cccnc43)c2)cc1	/	2%	/	29%[46.1 µM]	4%	/	-3.5%	/
O=C(O)CCSc1nnc(-c2ccccc2)n1-c1ccccc1	1%	6%	14%	-13%	-4%	-1%	2.9%	-1%
S=C(Nc1ccccc1)Nc1ccc(Cl)cc1Cl	10%	52%[activator]	-22%	?	-1%	4%	0.3%	-22%
COC(=O)/C=C(\C)NC(=O)c1cccs1	-6%	9%	6%	1%	-13%	-4%	-1.6%	2%
Cc1cc(N2CCCCC2)nc2ccc(NC(=O)c3cccc(F)c3)cc12	/	-10%	?	?	-9%	/	-13%	/
CCOC(=O)C1CCN(S(=O)(=O)c2ccccc2)CC1	5%	-10%	/	/	/	13%	/	1%
CC(C)c1cc(C(=O)N2CCCC(CCC(=O)N3CCN(c4ccccn4)CC3)C2)no1 (stereo not given)	-1%	?	-20%[46.1 µM]	6%	/	-19%	/	-1%
O=[N+]([O-])c1c(NCCCO)cc(Sc2nc3ccccc3s2)c2nonc12	8%	?	?	-26%	?	1%	-27%	-9%
CC(=O)NC(=O)NC(C)Cc1ccccc1 (stereo not given)	8%	20%	10%	?	3%	-5%	5.5%	12%
Cc1ccc(NC(=O)c2sc3nc[nH]c(=O)c3c2C)cc1C	/	24%	/	2%[46.1 µM]	18%	/	-4.6%	/
Cc1oc2nc(SCC(=O)NCc3cccnc3)nc(N)c2c1C	-2%	-2%	5%	10%	5%	-1%	4.1%	4%
CCOC(=O)c1c(NC(=O)CN2CCN(C(=O)c3ccco3)CC2)sc2c1CCCC2	4%	0%	9%	-1%	?	15%	-8.3%	-38%
CC1(C)Cc2c(sc(NC(=O)c3ccc(C(=O)c4ccccc4)cc3)c2C#N)C(C)(C)N1	12%	-12%	?	-5%	/	13%	/	0%
CC1(C)OC(=O)C(=CNc2ccccc2F)C(=O)O1	6%	18%	13%	3%	15%	-12%	-2.2%	2%
CCCNC(=O)NC(=O)COC(=O)CC(NC(N)=O)c1ccc(Cl)cc1 (stereo not given)	?	-8%	9%	27%	-2%	3%	10%	9%
COc1ccc(-c2cn3c(C)c(C(=O)N4CCN(c5ccc(F)cc5)CC4)sc3n2)cc1	9%	6%	-1%	/	19%	17%	1.3%	3%
CC(=O)N(Cc1ccc(F)cc1)C1=C(NCCc2ccccc2)C(=O)c2ccccc2C1=O	15%	25µM*	?	7.1µM*	7%	?	-7.3%	-35%
CC(NS(=O)(=O)c1ccc2c(c1)CC(C)N2C(=O)C1CC1)c1ccccc1 (stereo not given)	8%	20%	-13%[46.1 µM]	-11%[46.1 µM]	/	17%	/	4%
O=C(CN1CCN(S(=O)(=O)c2ccccc2)CC1)Nc1ccc2c(c1)CCC2	/	?	?	?	8%	3%	-6.4%	3%
O=C(CN1CCOCC1)Nc1scc(-c2ccccc2)c1C(=O)N1CCOCC1	-3%	11%	1%	7%	8%	3%	7.9%	16%
CCCNC(=O)OC[C@H]1O[C@H](CCO/N=C/[C@@H](NS(=O)(=O)c2ccc(C)cc2)[C@H](C)/C=C/CC(=O)OC)C=C[C@@H]1Oc1ccc(OC)cc1	-11%	/	?	?	?	/	-7.2%	-6%
COc1ccc(-c2nn(-c3ccccc3)cc2/C=N/NC(=O)c2cccc(S(=O)(=O)Nc3ccccc3Cl)c2)cc1	?	15%	?	?	7.9µM*	2%	-5.5%	9%
COc1ccc(CCN(C)C(=O)CN2C(=O)NC3(CCCCCC3)C2=O)cc1OC	/	-23%	-5%	23%	/	-13%	/	6%[6.58 µM]
Cc1ccc(-c2ccnc3nc(Sc4ncc(C(F)(F)F)cc4Cl)nn23)cc1	16%	?	1%	-7%	16%	-3%	-10%	-2%

Complete entries as entered above. Order of screens: NS1 function inh | StopGo reporter | MARV entry inh | Lassa entry inh | Cruzain noTriton | RE007 growth inh | Cruzain Triton | SARS PLpro yeast
Entry for `O=C(CCC(=O)N1CCN(S(=O)(=O)c2ccccc2)CC1)NC1CCCc2ccccc21` (stereo not given) = -9% | -21% | -11%&-11% | -1% | 11% | -1% | -1.9% | 11%
Entry for `COc1cc(/C=C2/C(=O)NN(c3cccc(C)c3)C2=O)ccc1OC(=O)c1ccco1` = -2% | -28% | 4% | 2% | -8% | 7% | -1.5% | 16%
Entry for `COCCNC(=O)C(c1ccc(F)cc1)N(Cc1ccco1)C(=O)CCC(=O)Nc1ccccn1` (stereo not given) = -3% | 1% | -8%[46.1 µM] | -16%[46.1 µM] | / | 7% | / | 2%
Entry for `CCOC(=O)C1CCN(S(=O)(=O)c2ccccc2)CC1` = 5% | -10% | / | / | / | 13% | / | 1%
